Vaccinia inh – Vaccinia orthopox stage-specific inhibition; Vaccinia-infected cells, mCherry/Venus stage reporter fluorescence; active compounds read low; some inactives read as strong as hits; activity change (mCherry), % (test concentration not listed); hit rate 0.01% among 89,000;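 active = mCherry past -33% and 40 or more points under the early reporter, replicates agreeing; inconclusive = past -33% without that gap or agreement; tested in A549 cells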;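 also: scaled between vehicle wells and reference inhibitor wells; 23 nL library stock went into each well; one replicate is shown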
Vaccinia inh Venus – further read-out of Vaccinia inh, marked with its call; activity change (Venus), %; measured here: Venus reporter, other viral stage;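 negative = less Venus signal; first of two replicates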
The depositor's hits bear a star; ? = inconclusive; nt = no result given.

SMILES	Vaccinia inh	Vaccinia inh Venus
C[C@@H]1CN([C@H](C)CO)C(=O)c2cccc(NS(=O)(=O)c3cn(C)cn3)c2O[C@@H]1CN(C)S(=O)(=O)c1ccc(Cl)cc1	22	20
C[C@H](CO)N1C[C@H](C)[C@@H](CN(C)Cc2ccc3c(c2)OCO3)OCCCC[C@H](C)Oc2ccc(NC(=O)Nc3ccc(C(F)(F)F)cc3)cc2C1=O	-28	-11
CN(C)C(=O)[C@H]1[C@H](CO)[C@H]2Cn3c(ccc(C4=CCCC4)c3=O)[C@@H]1N2S(=O)(=O)c1cn(C)cn1	4	13
COc1ccccc1NC(=O)N1CCCCN2[C@H](C1)[C@H](c1ccc(-c3cccc(C#N)c3)cc1)[C@@H]2CO	?	nt
COc1ccc(S(=O)(=O)N[C@@H]2C=C[C@H](CC(=O)N3CCc4ccccc4C3)O[C@@H]2CO)cc1	2	-1
O=S(=O)(c1ccc(F)cc1)N1CCCCN2[C@H](CO)[C@H](c3ccc(C#CC4CCCC4)cc3)[C@H]2C1	?	nt
CC(C)NC(=O)Nc1cccc2c1O[C@H](CN(C)Cc1ccc(-c3ccccc3)cc1)[C@H](C)CN([C@@H](C)CO)C2=O	-11	0
CC(C)CC#Cc1ccc2c(c1)O[C@H](CN(C)C(=O)C1CCC1)[C@H](C)CN([C@@H](C)CO)S2(=O)=O	?	nt
C[C@H]1CN([C@@H](C)CO)C(=O)Cc2cc(NC(=O)Nc3ccc4c(c3)OCO4)ccc2O[C@H]1CN(C)CC1CC1	-1	-2
Cc1ccc(S(=O)(=O)Nc2cccc3c2O[C@H](CN(C)S(=O)(=O)c2ccc(C)cc2)[C@@H](C)CN([C@@H](C)CO)C3=O)cc1	10	2
C[C@@H]1CN([C@H](C)CO)C(=O)c2cc(NC(=O)Cc3ccccc3)ccc2O[C@@H](C)CCCCO[C@H]1CN(C)Cc1ccccc1	?	nt
CO[C@H]1CN(C)C(=O)c2cc(NS(C)(=O)=O)ccc2OC[C@@H](C)N(Cc2nccs2)C[C@@H]1C	23	21
C/C=C/c1ccc([C@H]2[C@@H](CO)N(Cc3ccc(F)cc3)[C@H]2CNC(C)=O)cc1	-18	-9
C[C@H](CO)N1C[C@H](C)[C@H](CN(C)Cc2ccc(C(=O)Nc3ccccc3N)cc2)Oc2ccc(NS(C)(=O)=O)cc2C1=O	-3	12
CC(C)NC(=O)N(C)C[C@@H]1OCCCC[C@H](C)Oc2ccc(NC(=O)c3ccncc3)cc2C(=O)N([C@@H](C)CO)C[C@H]1C	17	8
C[C@H]1CN([C@@H](C)CO)C(=O)c2cc(-c3ccc(F)cc3)cnc2O[C@@H]1CN(C)C(=O)c1ccc(F)cc1	-21	-24
O=C(C[C@H]1C=C[C@H](NS(=O)(=O)c2ccc(F)cc2)[C@@H](CO)O1)NCCN1CCCCC1	0	9
COCC(=O)N1[C@@H](CO)[C@@H](c2ccccc2)C12CN(C(=O)c1cccnc1)C2	-2	8
C[C@@H]1CN([C@H](C)CO)C(=O)c2cccc(NC(=O)c3ccncc3)c2O[C@H]1CN(C)Cc1ccccc1	-6	-5
C[C@@H]1CN([C@H](C)CO)S(=O)(=O)c2ccc(-c3ccc(F)cc3)cc2O[C@H]1CN(C)S(C)(=O)=O	-28	-23
O=C(Cc1ccccc1)N1CCCCN2[C@H](C1)[C@@H](c1ccc(C#Cc3ccccc3)cc1)[C@@H]2CO	-13	-17
COc1ccc(NC(=O)N2C[C@@H](O)COC[C@@H]3O[C@@H](CC(=O)N4CCN(C)CC4)CC[C@H]32)cc1	5	2
Cc1cc(C(=O)Nc2cccc3c2O[C@@H](CN(C)C)[C@@H](C)CN([C@@H](C)CO)C3=O)n(C)n1	3	2
COCC(=O)N1[C@H](CO)[C@@H](c2ccccc2-c2cccc(OC)c2)[C@@H]1C#N	-10	-7
C[C@@H]1CN([C@H](C)CO)C(=O)Cc2cc(NC(=O)CCC(F)(F)F)ccc2O[C@H]1CN(C)Cc1ccc(C(F)(F)F)cc1	-27	-18
COc1ccccc1-c1cnc2c(c1)C(=O)N([C@H](C)CO)C[C@H](C)[C@H](CN(C)Cc1ccc(F)cc1)O2	?	nt
C=CCOC(=O)C1=C[C@@H](c2ccc(C(F)(F)F)cc2)[C@H](CCCO)[C@@H](OCC)O1	17	15
C[C@H]1CN([C@@H](C)CO)S(=O)(=O)c2ccc(C3=CCCC3)cc2O[C@@H]1CN(C)C(=O)Cc1ccncc1	21	23
C[C@H]1CN([C@@H](C)CO)C(=O)c2cc(-c3ccc(F)cc3)cnc2O[C@H]1CN(C)C(=O)CN(C)C	17	13
C[C@H]1CN([C@@H](C)CO)C(=O)c2cccc(NC(=O)c3cnccn3)c2O[C@H]1CN(C)Cc1ccc(Oc2ccccc2)cc1	-16	-19
COc1ccccc1-c1cnc2c(c1)C(=O)N([C@@H](C)CO)C[C@@H](C)[C@H](CN(C)CC1CCOCC1)O2	-6	-8
Cc1noc(C)c1NC(=O)N(C)C[C@H]1Oc2ccc(NC(=O)NC3CCCCC3)cc2C(=O)N([C@@H](C)CO)C[C@@H]1C	8	7
CCC(=O)N(C)C[C@@H]1Oc2ncc(C#CCC(C)C)cc2C(=O)N([C@H](C)CO)C[C@H]1C	4	6
COCC(=O)Nc1ccc2c(c1)OC[C@@H](C)N(C(=O)c1ccncc1)C[C@H](C)[C@@H](OC)CN(C)C2=O	16	12
Cc1noc(C)c1NC(=O)N(C)C[C@H]1Oc2ccc(NC(=O)Cc3cn(C)c4ccccc34)cc2CC(=O)N([C@@H](C)CO)C[C@@H]1C	17	-2
Cn1cnc(S(=O)(=O)N2C[C@@H](O)COC[C@H]3O[C@@H](CC(=O)N4CCN(c5ccccc5)CC4)CC[C@@H]32)c1	14	10
CC(C)C#Cc1cnc2c(c1)C(=O)N([C@@H](C)CO)C[C@@H](C)[C@@H](CN(C)Cc1ccccc1)O2	-21	-14
CC(C)C#Cc1ccc2c(c1)O[C@@H](CN(C)C(=O)CC1CC1)[C@@H](C)CN([C@H](C)CO)S2(=O)=O	-16	-7
CC=Cc1ccc2n(c1=O)C[C@H]1[C@H](CO)[C@@H](C(=O)Nc3ccccc3)N(CC3CCCC3)[C@@H]21 (mixture of isomers)	-5	9
CC(=O)N1CCCCN2[C@H](CO)[C@H](c3ccc(-c4ccc(C)cc4)cc3)[C@@H]2C1	5	-10

Nothing new here: an excerpt of the list.
SMILES	Vaccinia inh	Vaccinia inh Venus
C[C@H]1CN([C@@H](C)CO)C(=O)c2cccc(NC(=O)c3cnccn3)c2O[C@H]1CN(C)Cc1ccc(Oc2ccccc2)cc1	-16	-19
COc1ccccc1-c1cnc2c(c1)C(=O)N([C@@H](C)CO)C[C@@H](C)[C@H](CN(C)CC1CCOCC1)O2	-6	-8
Cc1noc(C)c1NC(=O)N(C)C[C@H]1Oc2ccc(NC(=O)NC3CCCCC3)cc2C(=O)N([C@@H](C)CO)C[C@@H]1C	8	7
CCC(=O)N(C)C[C@@H]1Oc2ncc(C#CCC(C)C)cc2C(=O)N([C@H](C)CO)C[C@H]1C	4	6
COCC(=O)Nc1ccc2c(c1)OC[C@@H](C)N(C(=O)c1ccncc1)C[C@H](C)[C@@H](OC)CN(C)C2=O	16	12
Cc1noc(C)c1NC(=O)N(C)C[C@H]1Oc2ccc(NC(=O)Cc3cn(C)c4ccccc34)cc2CC(=O)N([C@@H](C)CO)C[C@@H]1C	17	-2
Cn1cnc(S(=O)(=O)N2C[C@@H](O)COC[C@H]3O[C@@H](CC(=O)N4CCN(c5ccccc5)CC4)CC[C@@H]32)c1	14	10
CC(C)C#Cc1cnc2c(c1)C(=O)N([C@@H](C)CO)C[C@@H](C)[C@@H](CN(C)Cc1ccccc1)O2	-21	-14
CC(C)C#Cc1ccc2c(c1)O[C@@H](CN(C)C(=O)CC1CC1)[C@@H](C)CN([C@H](C)CO)S2(=O)=O	-16	-7
CC=Cc1ccc2n(c1=O)C[C@H]1[C@H](CO)[C@@H](C(=O)Nc3ccccc3)N(CC3CCCC3)[C@@H]21 (mixture of isomers)	-5	9
CC(=O)N1CCCCN2[C@H](CO)[C@H](c3ccc(-c4ccc(C)cc4)cc3)[C@@H]2C1	5	-10

Additional structures.
SMILES	Vaccinia inh	Vaccinia inh Venus
COc1ccccc1-c1ccc([C@@H]2[C@@H]3CN(S(=O)(=O)c4ccc(-c5ccccc5)cc4)C[C@H]2N3)cc1	?	nt
CO[C@H]1CN(C)C(=O)c2cc(NC(=O)c3ccccc3)ccc2OC[C@@H](C)N(C)C[C@H]1C	26	3
COC(=O)C[C@H]1CC[C@H]2[C@H](COc3ccc(NC(=O)Nc4ccc(C#N)cc4)cc3C(=O)N2C)O1	-16	-14
CCC(=O)N1[C@H](C(=O)NCc2ccc(F)cc2)[C@@H](CO)[C@@H]2Cn3c(ccc(C4=CCCC4)c3=O)[C@@H]21	4	-7
Cc1cc(C(=O)Nc2cccc3c2O[C@@H](CN(C)Cc2ccncc2)[C@@H](C)CN([C@H](C)CO)C3=O)n(C)n1	16	10
COc1cccc(S(=O)(=O)N(C)C[C@H]2Oc3cc(C4=CCCCC4)ccc3S(=O)(=O)N([C@H](C)CO)C[C@@H]2C)c1	?	nt
CN(C)C(=O)c1ccc(-c2ccc([C@@H]3[C@@H](CO)N4CCCCN(S(C)(=O)=O)C[C@@H]34)cc2)cc1	35	4
CCC(=O)N1CCCCN2[C@H](CO)[C@H](c3ccc(-c4ccc(F)cc4)cc3)[C@H]2C1	-3	-17
CC(C)(O)C#Cc1ccc([C@H]2[C@H]3CN(C(=O)c4ccncc4)CCCCN3[C@H]2CO)cc1	25	23
CS(=O)(=O)N1[C@@H](C#N)[C@@H](c2ccc(C#CC3CCCCC3)cc2)[C@@H]1CO	-10	-18
CCC(=O)Nc1ccc2c(c1)C(=O)N(C)C[C@H](OC)[C@H](C)CN(Cc1ccccc1OC)[C@@H](C)CO2	-9	-10
NCC[C@H]1CC[C@H](NS(=O)(=O)Cc2ccccc2)[C@@H](CO)O1	-9	-6
Cc1ccc(S(=O)(=O)N(C)C[C@H]2Oc3ccc(NC(=O)CCN4CCOCC4)cc3CC(=O)N([C@@H](C)CO)C[C@H]2C)cc1	9	8
COc1ccc(NC(=O)Nc2cccc3c2O[C@@H](CN(C)Cc2ccc(C(=O)O)cc2)[C@H](C)CN([C@@H](C)CO)C3=O)cc1	12	2
C[C@@H]1CN([C@H](C)CO)C(=O)c2cc(NC(=O)C3CCCCC3)ccc2O[C@@H](C)CCCCO[C@H]1CN(C)Cc1ccc2c(c1)OCO2	?	nt
CC(C)CC#Cc1cnc2c(c1)C(=O)N([C@@H](C)CO)C[C@@H](C)[C@H](CN(C)C(=O)CC1CC1)O2	-1	-7
C[C@@H]1CN([C@@H](C)CO)C(=O)c2cc(-c3ccccc3F)cnc2O[C@H]1CN(C)C(=O)c1cnccn1	16	6
O=C(C[C@H]1CC[C@H](NC(=O)c2ccc3c(c2)OCO3)[C@@H](CO)O1)NC1Cc2ccccc2C1	-20	-19
COc1ccc(NC(=O)Nc2ccc3c(c2)C(=O)N([C@@H](C)CO)C[C@@H](C)[C@H](CN(C)C(=O)Nc2ccc(F)cc2)O3)cc1	-1	-5
C[C@H](CO)N1C[C@H](C)[C@@H](CN(C)C(=O)Nc2ccc(F)cc2)Oc2ccc(NC(=O)C3CC3)cc2C1=O	12	3
C[C@H]1CN([C@@H](C)CO)C(=O)CCCn2cc(nn2)CO[C@H]1CN(C)Cc1cccnc1	4	2
C[C@H](NC(=O)[C@H]1[C@H](CO)[C@H]2Cn3c(ccc(/C=C/c4ccccc4)c3=O)[C@@H]1N2)c1ccccc1	-1	6
O=C(C[C@@H]1CC[C@H]2[C@@H](COC[C@@H](O)CN2C(=O)c2cccnc2)O1)NCc1ccc(-c2ccccc2)cc1	18	10
C[C@H]1CN([C@@H](C)CO)C(=O)Cc2cc(NS(=O)(=O)c3cn(C)cn3)ccc2O[C@H]1CN(C)S(=O)(=O)c1ccccc1	-1	-1
C[C@@H]1CN([C@@H](C)CO)C(=O)c2c(c3ccccc3n2C)-c2ccccc2CO[C@@H]1CN(C)C(=O)c1ccccc1	-28	-30
CO[C@@H]1CN(C)C(=O)c2cc(NS(C)(=O)=O)ccc2OC[C@H](C)N(C(=O)CN(C)C)C[C@H]1C	0	-3
Cc1noc(C)c1S(=O)(=O)Nc1ccc2c(c1)C(=O)N([C@@H](C)CO)C[C@H](C)[C@H](CN(C)C(=O)c1ccncc1)OCCCC[C@@H](C)O2	12	8
C/C=C/c1ccc2c(c1)O[C@@H](CN(C)C(=O)c1cccnc1)[C@@H](C)CN([C@H](C)CO)S2(=O)=O	-3	-6
CO[C@H]1CN(C)C(=O)c2ccc(NC(C)=O)cc2OC[C@H](C)N(C(=O)Cc2ccccn2)C[C@@H]1C	11	10
COc1ccc(NC(=O)Nc2ccc3c(c2)[C@@H]2C[C@@H](CC(=O)N4CCCCC4)O[C@H](CO)[C@@H]2O3)cc1	16	13
C[C@H]1CN([C@@H](C)CO)C(=O)c2ccccc2-c2ccccc2CO[C@@H]1CN(C)C(=O)Nc1cccc(C(F)(F)F)c1	-26	-23
CCCNC(=O)N1CC2(CCN(S(=O)(=O)c3ccccc3)CC2)c2c(n(C)c3cc(OC)ccc23)[C@H]1CO	?	nt
C[C@H]1CN([C@@H](C)CO)C(=O)c2cc(NS(=O)(=O)c3ccc(F)cc3)ccc2O[C@@H]1CN(C)C(=O)Nc1cccc2ccccc12	15	8
C[C@H](CO)N1C[C@H](C)[C@H](CN(C)S(=O)(=O)c2cccs2)OCCCC[C@H](C)Oc2ccc(NC(=O)C3CCCCC3)cc2C1=O	?	nt
Cc1ccc(S(=O)(=O)Nc2cccc3c2O[C@@H](CN(C)Cc2ccncc2)[C@@H](C)CN([C@@H](C)CO)C3=O)cc1	2	3
C[C@H](CO)N1C[C@H](C)[C@H](CN(C)C(=O)c2ccccc2F)Oc2ncc(-c3ccc(F)cc3)cc2C1=O	14	3
C[C@@H]1CCCCO[C@H](CN(C)C(=O)Cc2ccccc2)[C@H](C)CN([C@@H](C)CO)C(=O)c2cc(NC(=O)CCCN(C)C)ccc2O1	25	15
N#C[C@H]1[C@@H](c2ccc(C#CC3CC3)cc2)[C@H](CO)N1S(=O)(=O)c1ccccc1	-9	-3

From PubChem BioAssay

Not all compounds are listed, so the mix of outcomes need not match the whole.
